RE007 growth inh: qHTS Assay for Inhibitors of the HIV-1 protein Vpr; S. pombe RE007 Vpr strain, BacTiter-Glo ATP luminescence, 24 h; control for the full effect not named in the record; Potency, µM (highest dose often 92.2 µM), without a hit: top-dose activity change, negative = less growth; actives 0.21% (n = 360,000); AID 651644, 2012; active = well fitted falling curve with a large enough effect; inconclusive = small, poorly fitted or top-dose-only effect; inactive = no such curve, though single readings can be large or run the other way;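 also: nearly all actives have a fitted effect of over 50% in size; the assay follows cell death caused by Vpr and the record does not say whether a fall means rescue or toxicity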
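Fission yeast strain RE007, carrying one chromosomally integrated HIV-1 vpr copy, was seeded at OD 0.01 in PMG+AL medium with 23 nL pinned compound. After 24 h at 30 °C and 99% humidity, viability was read by BacTiter-Glo luminescence.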
2A StopGo: High Throughput Screening for Foot and Mouth Disease Virus Antivirals | human cells with a luciferase reporter of 2A StopGo recoding; control for the full effect not named in the record | Potency, µM (highest dose often 57.9 µM), for inactives: top-dose signal change, negative = less light | actives 1.2% (n = 410,000); active = well fitted falling curve with a large enough effect; inconclusive = small, poorly fitted or top-dose-only effect; inactive = no such curve, though single readings can be large or run the other way; tested in HEK293T cells; also: nearly all actives have a fitted effect of over 45% in size; luciferase light after 4 h
An asterisk follows results filed as active; ? = inconclusive; [ ] = dose if it differs, or a comment. % is scaled to controls: 0 for no effect and ±100 for the full control effect; potency is read from the fitted curve at half-maximal effect.

SMILES | RE007 growth inh | 2A StopGo
Cc1ccc(-c2cc(C(=O)NCC3(N(C)C)CCCCC3)c3ccccc3n2)o1 | -10% | -12%
CCCN(C)C[C@@H]1OCc2cnnn2CCCC(=O)N([C@H](C)CO)C[C@H]1C | 9% | -13%
CCc1nc2ccc(C(=O)NCCCN(C)C)cn2c1N(CC)CCOC | -8% | -14%
CC(C)NC(=O)C1(C)CSCC(=O)N1CCCn1ccnc1 (stereo not drawn) | 0% | -1%
COC(=O)[C@@]1(C(C)C)N=C(c2cc(OC)c(OC)c(OC)c2)[C@]2(O1)C(=O)N(C)c1ccc(Br)cc12 | 4% | -12%
CN(CCO)c1ccc2c(c1)OC[C@@H](Cc1ccccc1)NS2(=O)=O | -2% | -10%
Cc1ccccc1S(=O)Cc1ccc(C(=O)N2CCN(C3CCCCC3)CC2)o1 (stereo not drawn) | -7% | -10%
O=C(O)C(S)C(S)C(=O)O (stereo not drawn) | 2% | -25%
CCc1nc2c(OCC3COc4ccccc4O3)cccn2c1N(C)C(=O)c1ccccc1F (stereo not drawn) | 5% | ?
COCCNc1nc2cc(-c3ccccc3C)sc2c(=O)n1C | -21% | -18%
CN(c1ccccc1)S(=O)(=O)c1cc(C(=O)Nc2ccccc2N2CCOCC2)ccc1Cl | 5% | ?
CCCCc1c(-c2ccccc2OC)ncn1CCc1ccccc1OC | -8% | 22µM*

Full records, looked up by structure:
`O=C(O)C(S)C(S)C(=O)O` (stereo not drawn) in the list: RE007 growth inh: 2%; 2A StopGo: -25%
`CN(CCO)c1ccc2c(c1)OC[C@@H](Cc1ccccc1)NS2(=O)=O` in the list: RE007 growth inh: -2%; 2A StopGo: -10%

Returning to the listing, repeating the 5 entries before the break.
SMILES | RE007 growth inh | 2A StopGo
O=C(O)C(S)C(S)C(=O)O (stereo not drawn) | 2% | -25%
CCc1nc2c(OCC3COc4ccccc4O3)cccn2c1N(C)C(=O)c1ccccc1F (stereo not drawn) | 5% | ?
COCCNc1nc2cc(-c3ccccc3C)sc2c(=O)n1C | -21% | -18%
CN(c1ccccc1)S(=O)(=O)c1cc(C(=O)Nc2ccccc2N2CCOCC2)ccc1Cl | 5% | ?
CCCCc1c(-c2ccccc2OC)ncn1CCc1ccccc1OC | -8% | 22µM*
COc1ccc(C(C)=O)cc1OCc1ccccc1 | -9% | 5%
Cc1ccccc1-c1cccc([C@@H]2C[C@H]3[C@H](CON3C)CN2Cc2cc(Cl)cc(Cl)c2)c1 | ? | 0%
CC(OC(=O)C1CCN(S(=O)(=O)c2ccc3c(c2)OCCO3)CC1)C(=O)NC1(C#N)CCCCC1 (stereo not drawn) | -10% | -22%
Cc1nc2ccccc2n1C(C)c1nc2ccccc2n1CC(=O)c1ccc(OC(F)(F)F)cc1 (stereo not drawn) | 0% | -14%
S=C1NCCN1CC1CCN(CC2CCCC2)CC1 | -16% | -11%
CC(C)(C)Cc1c(C2CCCCC2)nc2ccc(Br)cn12 | -10% | -19%
COc1ccc(Cn2cc(CN3CC(N(C)C)CS3(=O)=O)nn2)cc1 (stereo not drawn) | 13% | -12%
Nc1[nH]c(C(=O)c2ccccc2)c(-c2ccncc2)c1C(=O)NCc1cccc2ccccc12 | 3% | -30%
Cc1cn([C@H]2C[C@H](O)[C@@H](CCC(=O)NCCCc3ccccc3)O2)c(=O)[nH]c1=O | -13% | -7%
COc1ccc(CC(=O)NCc2ccccc2F)cc1S(=O)(=O)N1CCOCC1 | 7% | -12%
O=C(Nc1ccc2c(c1)OCO2)c1cc(C2CCCCN2C(=O)c2ccc3c(c2)CCO3)on1 (stereo not drawn) | 28% | 2%
Cc1c(Br)cccc1NC(=O)C1(C)CCN1C(C)C (stereo not drawn) | 2%[18.4 µM] | -9%

An excerpt from above in order of SMILES length, largest number first:
SMILES | RE007 growth inh | 2A StopGo
Cc1ccccc1-c1cccc([C@@H]2C[C@H]3[C@H](CON3C)CN2Cc2cc(Cl)cc(Cl)c2)c1 | ? | 0%
Nc1[nH]c(C(=O)c2ccccc2)c(-c2ccncc2)c1C(=O)NCc1cccc2ccccc12 | 3% | -30%
COc1ccc(Cn2cc(CN3CC(N(C)C)CS3(=O)=O)nn2)cc1 (stereo not drawn) | 13% | -12%
Cc1c(Br)cccc1NC(=O)C1(C)CCN1C(C)C (stereo not drawn) | 2%[18.4 µM] | -9%

Additional entries follow:
SMILES | RE007 growth inh | 2A StopGo
CC(C)NC1C2CCC(CC2)C1(O)c1ccc(Cl)c(Cl)c1 (stereo not drawn) | 10% | -25%
CCOc1ccc(NC(=O)CSc2nc3ccsc3c(=O)n2CCCCC(=O)O)cc1 | -2% | -15%
O[C@@H]1CN(CC2CCCCC2)[C@@H](c2ccc(Cl)cc2)C[C@H]1n1cc(-c2ccc(F)cc2)nn1 | -1% | -7%
CCc1nc2ccc(C(=O)Nc3cc(-c4ccccc4)ccc3OC)cn2c1N(C=O)CCC(C)C | -18% | ?
CCCS(=O)(=O)NC(=O)C1(C)CCN(C(=O)c2ccccc2OC(F)(F)F)C1 (stereo not drawn) | 12% | 3%
COC(=O)C1(C(=O)OC)c2ccccc2CN(S(=O)(=O)c2ccc(C)cc2)C1CC(C)=O (stereo not drawn) | 0% | 7%
Cc1csc(-c2cc(C(=O)NCc3cc(C(F)(F)F)cc(C(F)(F)F)c3)n[nH]2)c1 | 3% | -17%
O=C(Nc1ccc2c(c1)OCCO2)C1c2ccccc2OCC(=O)N1Cc1ccc2c(c1)OCO2 (stereo not drawn) | 16% | 11%
CSc1ccc(Cn2c(C)c(C(=O)NCc3ccc(C(C)C)cc3)sc2=O)cc1 | -20%[18.4 µM] | -30%
CCOC(=O)[C@]12CCC=C1N(Cc1ccc3c(c1)OCO3)C(=O)[C@H](CC(=O)N1CCCC1)C2 | -5% | 10%
O=[N+]([O-])c1ccc(C=NN2CCOCC2)s1 | ? | 15%
COC(=O)C1CC2=C(CCCC2=O)N(c2ccccc2)C1=O (stereo not drawn) | -2% | 8%
CCCCNC(=O)C1(C)CCCCN1C(=O)c1cc(OC)ccc1Br (stereo not drawn) | -1% | -9%
CCOc1ccc(CCN2C(=O)C(=O)N([C@@H](Cc3ccccc3)CN3CCC[C@H]3CN3C(=O)C(=O)NC[C@@H]3Cc3ccc(O)cc3)C[C@@H]2Cc2ccc(O)cc2)cc1 | 6% | -8%
O=c1c2ccccc2sn1-c1ccc(Cl)cc1 | 8.9µM* | -23%
COc1ccc(NC(=O)N(C)C[C@H]2OCc3cn(nn3)CCCC(=O)N([C@@H](C)CO)C[C@@H]2C)cc1 | 3% | -21%
COCC(=O)N[C@H]1CC[C@@H](CC(=O)NCc2ccccc2OC)O[C@@H]1CO | -4% | -17%
CCCCNC(=O)C[C@@H]1C[C@@]2(C(=O)OC)CCCCC=C2N(Cc2cccc3ccccc23)C1=O | -6% | -7%
COc1ccccc1-c1cc(NC=O)c2ncc(-c3ccc(S(C)(=O)=O)cc3)n2c1 | -4% | -7%
COc1ccccc1N1CCN(C2C(=O)Nc3ccccc3-n3nnnc32)CC1 (stereo not drawn) | 5% | -3%
CNC(=O)C[C@H]1C(=O)N(CCc2ccccc2)C[C@@H]1c1ccc(OC)cc1 | -3% | 0%
O=C1c2cccc3c2C2(O)c4c1cccc4C(=O)c1cccc(c12)C3=O | 14% | ?
COc1ccc(CNc2nn3c(-c4cccc(C(=O)N(C)C)c4)cnc3s2)cc1 | 11% | 0%
Cc1nc2c(OCc3cc(Cl)cc(Cl)c3)cccn2c1N(C)C(=O)CCC1CCCC1 | -5%[18.4 µM] | -30%

Some values from the results shown:
`CCOc1ccc(CCN2C(=O)C(=O)N([C@@H](Cc3ccccc3)CN3CCC[C@H]3CN3C(=O)C(=O)NC[C@@H]3Cc3ccc(O)cc3)C[C@@H]2Cc2ccc(O)cc2)cc1` in 2A StopGo: -8%
`CCCCNC(=O)C1(C)CCCCN1C(=O)c1cc(OC)ccc1Br` (stereo not drawn) in 2A StopGo: -9%

Later entries
SMILES | RE007 growth inh | 2A StopGo
O=C(Cc1ccc(NC(=O)C2CCCN(C(=O)C3CC3)C2)cc1)Nc1cccc(C(=O)N2CCCC2)c1 (stereo not drawn) | 5% | -9%
O=C(NC(c1ccc(-c2ccccc2)cc1)c1cnccn1)C1CCN(Cc2cccs2)CC1 (stereo not drawn) | 7% | -2%
O=C(c1cccc(S(=O)(=O)N2CCOCC2)c1)N1CCN(c2ncccn2)CC1 | -6% | -11%
C=CCn1c(SCCN2C(=O)c3ccccc3C2=O)nc2scc(-c3ccc(F)cc3)c2c1=O | 16% | 2%
O=C(Nc1cccc([N+](=O)[O-])c1)c1ccc([N+](=O)[O-])o1 | -18% | ?
C=CCN1C=C2C(=O)C(C)(OC(=O)c3cnc4ccccc4n3)C(=O)C=C2C=C1/C=C/COC (stereo not drawn) | -13% | -10%
COC(=O)CCC(=O)OC1(C)C(=O)C2=CN(CCc3ccccn3)C(c3ccc(OC)cc3)=CC2=C(Br)C1=O (stereo not drawn) | -13% | 19%
C[C@@H]1CNC(=O)c2c(C(=O)NC3CCN(C(=O)OC(C)(C)C)CC3)ncn21 | 17% | -8%
CC1(C(=O)NS(=O)(=O)Cc2cccc(Cl)c2)CCN1C(=O)C/C=C/c1ccccc1 (stereo not drawn) | 4% | -13%
COc1ccc(CN2CCC[C@]3(N[C@H](c4ccc(C)cc4)[C@@H]4C(=O)N(Cc5ccccc5)C(=O)[C@@H]43)C2=O)cc1 | 2% | -9%
CCOC(=O)[C@]12CCC=C1N(Cc1ccccc1)C(=O)[C@H](CC(=O)NCCC(C)C)C2 | 0% | 12%

High-throughput results deposited in PubChem BioAssay by National Center for Advancing Translational Sciences (NCATS).

Not all compounds are listed; the hit share may differ from the screen's.
